HNF4A DNA FP = change in binding of human HNF4A to DNA, primary screen, biochemical, fluorescence polarization, FITC-DNA. Hepatocyte nuclear factor 4-alpha (Homo sapiens), P41235. 1 h. activity change, % at 10 µM. hit rate 0.3% among 360,000; in the data active = activity change above about 30%, passing the limit was not always enough;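 note: controls were the assay level and a saturating level of protein; the project sought stronger binding though the title names inhibitors; some compounds called inactive have numbers as strong as hits; positive values seem to mean higher polarization but the record does not say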
Target sequence (P41235 whole entry, looked up): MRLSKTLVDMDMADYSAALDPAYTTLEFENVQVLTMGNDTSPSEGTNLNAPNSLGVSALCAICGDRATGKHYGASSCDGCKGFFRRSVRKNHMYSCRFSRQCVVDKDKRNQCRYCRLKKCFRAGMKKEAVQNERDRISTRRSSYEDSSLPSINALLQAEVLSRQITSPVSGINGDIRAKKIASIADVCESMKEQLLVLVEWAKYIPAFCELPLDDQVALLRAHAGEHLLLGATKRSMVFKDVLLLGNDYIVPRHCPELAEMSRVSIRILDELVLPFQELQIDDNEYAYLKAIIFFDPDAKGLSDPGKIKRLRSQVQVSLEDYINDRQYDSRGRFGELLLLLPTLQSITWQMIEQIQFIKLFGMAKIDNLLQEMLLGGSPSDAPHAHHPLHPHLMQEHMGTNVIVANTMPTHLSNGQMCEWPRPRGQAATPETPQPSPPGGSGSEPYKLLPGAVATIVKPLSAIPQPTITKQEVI
E coli growth = E. coli growth inhibition, primary screen, OD600; Escherichia coli growth, 23 h; stronger effect = lower value; OD600 absorbance (test concentration not listed); hit rate 0.21% among 330,000; AID 1053175, 2014;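 active = OD600 absorbance below the run mean of sample wells minus 3.6 SD, in any replicate, cut at about 0.56 in these data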;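 note: stock transfer was 300 nL into about 60 µL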
UCH37 DUB inh = inhibitors of human UCH37 deubiquitinase, primary screen, biochemical, Ub-AMC cleavage, fluorescence | purified proteasome/UCH37 | hit rate 0.33% among 330,000 | Ubiquitin carboxyl-terminal hydrolase isozyme L5 (Homo sapiens), Q9Y5K5 | AID 588478, 2011 | inhibition, % (test concentration not listed);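 active = mean of two replicates above 20%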;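 note: 0% = compound-free wells with enzyme and 100% = wells lacking proteasome; stock transfer was 100 nL into about 20 µL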
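System: Proteasome-associated human UCH37 deubiquitinase; Input: 0.15 nM proteasome in added enzyme buffer; Also added: Ub-AMC substrate from 1 µM stock; Incubation: 30 min compound-proteasome preincubation then 25 min substrate reaction, room temperature; Detection: fluorescence, ex 355 nm, em 460 nm; Read-out: % inhibition of Ub-AMC cleavage fluorescence; Benchmarks: no-proteasome and no-compound wells.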
ALR H2O2 inh = inhibitors of human ALR sulfhydryl oxidase, primary screen, biochemical, H2O2 detection, HRP-luminol luminescence, single point. FAD-linked sulfhydryl oxidase ALR (Homo sapiens), P55789. purified ALR, DTT oxidation. inhibition, % (concentration not given with the values). hit rate 3.8% among 290,000. AID 485317, 2010;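 active = mean and each replicate at 75% or more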;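 note: stock transfer was 7.5 nL into about 7.5 µL; 0% = neutral wells and 100% = wells with inactivated enzyme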
Target sequence (P55789 whole entry, looked up): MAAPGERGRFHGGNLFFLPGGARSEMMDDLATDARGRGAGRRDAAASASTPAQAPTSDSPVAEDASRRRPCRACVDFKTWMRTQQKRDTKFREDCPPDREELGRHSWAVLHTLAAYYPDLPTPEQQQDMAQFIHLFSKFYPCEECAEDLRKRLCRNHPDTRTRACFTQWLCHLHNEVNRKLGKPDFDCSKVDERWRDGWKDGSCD
rRNA inh HTS = reduced GFP signal of wild-type E. coli, primary screen, bacterial rRNA inhibitor project, GFP/RFP fluorescence, OD600, single point | E. coli WT GFP vs humanized-ribosome RFP mutants, 24 h; stronger effect = lower value; DMSO median 0, no signal -100 | GFP signal change (wild-type ribosome), % (test concentration not listed) | hit rate 1.6% among 350,000 | AID 720706, 2013;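 active = significant combined selectivity score with lowered wild-type GFP, culture density cut under 30%, mutant RFP and density less affected; inactive = any of these conditions unmet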; note: one replicate is shown; some compounds called inactive have numbers as strong as hits
FGF22 binding = binders of human FGF22 protein, primary screen, FGF22 synaptogenesis inhibitor project, biophysical, thermal shift, single point; Fibroblast growth factor 22 (Homo sapiens), Q9HCT0; recombinant FGF22 thermal shift, SYPRO orange fluorescence; percent of sucrose octasulfate shift, DMSO zero; calls only at 9.99 µM; hit rate 1.5% among 340,000; AID 651658, 2012;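 active = melting point raised past a set limit in the mean and every replicate; three in four hits are not shown here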
Target sequence (Q9HCT0 whole entry, looked up): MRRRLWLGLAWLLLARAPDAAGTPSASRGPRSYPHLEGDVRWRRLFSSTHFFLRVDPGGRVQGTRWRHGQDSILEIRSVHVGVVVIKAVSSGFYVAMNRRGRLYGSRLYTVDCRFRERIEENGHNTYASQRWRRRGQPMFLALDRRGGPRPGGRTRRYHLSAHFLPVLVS
B2AR ag = beta2AR agonists driving receptor internalization, primary screen, cell-based, FAP fluorogen, flow cytometry; Beta-2 adrenergic receptor (Homo sapiens), P07550; Am2.2-beta2AR cells; reference of the scale not given here; response, % (concentration not given with the values); hit rate 0.43% among 340,000;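 active = response above a set limit, near 3 SD of response in nonfluorescent compounds, cut at about 42% in these data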;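 note: stock transfer was 100 nL into about 11 µL; a reference agonist was the positive control; negative values mostly stem from fluorescent compounds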
rRNA inh HTS OD600 = second read-out of rRNA inh HTS, no call of its own (marks repeat the call); OD600 change, %; measured here: OD600 growth;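 optical density of the mix in the first replicate; 0 = DMSO median and -100 = no signal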
rRNA inh HTS RFP = also measured in rRNA inh HTS; calls as there; RFP signal change, %; measured here: RFP humanized mutant strains;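 first replicate; 0 = DMSO median and -100 = no signal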
Numbers without * were called inactive; i = inactive; · = not tested or not shown. Some of the compounds tested; rates above refer to the full screens.

SMILES	HNF4A DNA FP	E coli growth	UCH37 DUB inh	ALR H2O2 inh	rRNA inh HTS	rRNA inh HTS OD600	rRNA inh HTS RFP	FGF22 binding	B2AR ag
CCN1C(=O)c2cccc3c(S(=O)(=O)NC(Cc4c[nH]c5ccccc45)C(=O)O)ccc1c23 (stereo not drawn)	2.6	0.74	6.5	-12	·	·	·	·	-15
Cc1ccc(C)c(OCC(O)CNC2CCCC2)c1 (stereo not drawn)	5.6	0.65	2.2	·	1	0	-0.9	i	-13
OCCC1CN(Cc2cc(F)ccc2-n2cccn2)CCN1C1CCCC1 (stereo not drawn)	1.6	0.7	0.3	3	7	8	3.6	i	-3
O=C(Nc1ccc(N2CCOCC2)cc1)c1ccccc1SCC(=O)N1CCCC1	-0.1	0.72	-1.4	46	11	5	1.4	i	-1
CCCNC(=O)COC(=O)/C=C/c1ccc2c(c1)OCO2	1.0	0.66	-51	-3	12	9	6.2	i	4
O=C(NC(C(=O)N/N=C/c1cc([N+](=O)[O-])ccc1O)c1n[nH]c(=O)c2ccccc12)c1ccccc1 (stereo not drawn)	-2.8	·	·	·	-12	-2	3.3	i	-3
CC(C)CC(N)c1csc(Nc2ccc(C(=O)NCCO)cc2)n1 (stereo not drawn)	2.2	·	·	·	11	17	1.0	i	·
CCOc1ccc(NC2CCCCC2NS(=O)(=O)c2ccccc2)cc1 (stereo not drawn)	0.2	0.69	-0.2	92*	7	-3	0.8	i	7
CC(=O)CCc1c(C)[nH]c2ccc(NC(C)=O)cc2c1=O	-0.6	0.68	-27	3	·	·	·	·	-10
Cc1ccc(S(=O)(=O)N2CCCOC2CNC(=O)C(=O)NCCC2=CCCCC2)cc1 (stereo not drawn)	0.5	0.68	1.5	-4	·	·	·	·	1
CC(C)CNc1ncnc2c1ncn2[C@H]1CN(Cc2ccc3c(c2)OCO3)C[C@@H](CO)O1	1.2	·	·	·	5	1	-0.3	i	·
Cc1cccc(C)c1OCC(=O)NNC(=O)Nc1ccc(Cl)cc1	-1.9	0.65	0.6	2	-7	-2	-4.0	i	-5
Cc1cccc(NC2(C(F)(F)F)N=C(c3ccccc3)NC2=O)n1 (stereo not drawn)	0.0	0.78	-2.7	-2	2	4	-4.5	i	-2
CSc1n[nH]c(NC2=CC(=O)CCC2)n1	-0.3	0.67	1.7	-6	·	·	·	·	-3
CN(C)c1ccc(/C=C(\NC(=O)c2ccccc2)C(=O)NCc2ccncc2)cc1	4.0	0.64	9.4	·	10	7	0.0	i	6
COc1ccc(-c2nsc3c(SCc4ccccc4)ncnc23)cc1	4.3	0.75	i	-5	·	·	·	·	1
Cc1ccc(-c2nc3c(c(=O)c4ccccc4n3C)c(=O)n2Cc2ccco2)cc1	1.1	·	·	18	-28	-52	9.2	i	11
O=c1[nH]cc(S(=O)(=O)N2CCCc3ccccc32)c(=O)[nH]1	2.6	0.64	1.1	-8	4	10	-1.5	i	-4
COc1cccc(C(=O)N/N=C2/SCC(=O)N2CCc2ccc(OC)c(OC)c2)c1	2.3	·	·	-17	·	·	·	·	-1
CN(C)S(=O)(=O)c1cccc(NC(=O)COC(=O)/C=C/c2ccc([N+](=O)[O-])cc2)c1	8.7	0.72	6.4	0	3	-4	-1.2	i	-1

Marked active in ALR H2O2 inh, among the entries above:
canonical_smiles	UCH37 DUB inh	ALR H2O2 inh	rRNA inh HTS	rRNA inh HTS OD600	rRNA inh HTS RFP	B2AR ag
CCOc1ccc(NC2CCCCC2NS(=O)(=O)c2ccccc2)cc1 (stereo not drawn)	-0.2	92*	7	-3	0.8	7

The listing continues.
SMILES	HNF4A DNA FP	E coli growth	UCH37 DUB inh	ALR H2O2 inh	rRNA inh HTS	rRNA inh HTS OD600	rRNA inh HTS RFP	FGF22 binding	B2AR ag
OC(COCc1cccs1)CN1CCN(c2cccc(C(F)(F)F)c2)CC1 (stereo not drawn)	-5.0	0.68	3.0	-1	·	·	·	·	1
CCC(NC(=O)c1cc(COc2cncc(Cl)c2)on1)c1ccc(C)cc1 (stereo not drawn)	-1.4	·	·	-1	6	-27	1.2	i	-1
CC(C)Oc1ccc(N2CC(C(=O)OCC(=O)NCc3ccccc3)CC2=O)cc1 (stereo not drawn)	-2.4	0.59	1.4	0	·	·	·	·	6
CCOC(=O)c1[nH]c(C)c(CN(CCc2ccccc2)S(C)(=O)=O)c1C	4.4	0.73	1.3	0	-2	-2	1.0	i	-21
O=C(CCc1ccccc1)NC1CCS(=O)(=O)C1 (stereo not drawn)	-0.9	0.67	0.7	·	1	-4	-0.6	i	2
COc1ccc(-c2cn(Cc3ccc(C(=O)c4ccccc4)cc3)nn2)cc1	·	0.68	2.1	-1	13	7	-0.1	i	·
COc1ccc(CCC(=O)NC(C)C2CCCO2)cc1 (stereo not drawn)	-3.1	0.6	2.7	3	8	18	2.4	i	3
O=C(CCNS(=O)(=O)c1ccc(Cl)cc1)N1CCOCC1	-1.2	0.7	-1.0	0	8	1	0.3	i	-14
Cc1nc2ccc(Br)cn2c1NC(C)(C)C	-2.9	0.68	1.3	95*	·	·	·	·	-2
COc1ccccc1-c1ccc(C(=O)O)o1	-0.7	0.72	-25	3	·	·	·	·	-3
Cc1ccc(NC(=O)c2cccc(-n3cnnn3)c2)cc1Cl	0.3	0.71	-0.9	·	2	24	-1.2	i	4
CC1(C)C(=O)Nc2ccccc2N1C(=O)COC(=O)c1cc([N+](=O)[O-])ccc1N	-0.1	0.72	4.8	-3	-14	-16	0.5	i	3
CNC(=O)/C(=C\c1cccc(Oc2ccccc2)c1)NC(=O)c1ccccc1	1.1	0.72	0.4	-6	·	·	·	·	-5
Cc1ccc(-c2noc(CCCc3ccccc3)n2)cc1	-0.7	0.68	2.3	·	·	·	·	·	3
O=C(CNCC1CCCCC1)Nc1ccccc1N1CCCCC1	-5.1	0.61	3.6	18	·	·	·	·	-3
COc1ccc(C2=NOC(C)(c3nnc(Cc4ccccc4)o3)C2)cc1 (stereo not drawn)	1.0	0.7	29*	·	1	13	-4.6	i	-6
CC(C)NC(=O)C(c1ccc(F)cc1)N(C(=O)CCC(=O)Nc1ccccn1)c1cccc(F)c1 (stereo not drawn)	2.3	0.65	1.8	-1	-2	3	-2.7	i	6
Cc1[nH]c(C(=O)N/N=C/c2ccc(N(C)C)cc2)c(C)c1C(=O)N/N=C/c1ccc(N(C)C)cc1	8.1	·	·	-1	1	17	-0.2	i	0
COCC(C)N=C1NN=C(c2cc(C)n(Cc3ccccc3Cl)c2C)CS1 (stereo not drawn)	0.8	0.67	6.3	7	2	1	-4.0	i	5
Cc1cc(NC(=O)CN2CCCC(C)C2)n(-c2nc3ccccc3s2)n1 (stereo not drawn)	-1.0	0.69	6.1	·	·	·	·	·	1
O=C(CSc1ccccc1C(=O)NCCCN1CCCC1=O)NCc1ccco1	-1.2	0.7	-27	-5	·	·	·	·	0
CCCNC(=O)CSc1nc(Cc2ccccc2)nc2ccccc12	-0.6	0.68	4.1	25	2	4	0.3	i	4
O=C(COC(=O)C1(c2ccc(F)cc2)CCCC1)NCc1ccc2c(c1)OCO2	2.4	0.7	3.2	-2	-37	-63	-12	·	1
CCN1/C(=C/c2ccc3cc(C)ccc3[n+]2CC)Sc2ccccc21	119*	0.22*	36*	22	88	-48	60	i	·
Cc1ccnc(NC(=O)C2CCN(S(=O)(=O)c3c(C)c(C)cc(C)c3C)CC2)c1	-2.0	0.69	0.6	-1	-30	-56	21	i	4
NC(=O)CSc1nnc2n(N)c(=O)c3ccccc3n12	1.0	0.66	-0.7	11	9	12	3.3	i	1
CCOc1ccc(N2C(=O)CC(N3CCN(C(=O)c4ccco4)CC3)C2=O)cc1 (stereo not drawn)	-0.2	0.69	1.2	-3	·	·	·	·	-4
CCOc1ccc(C(=O)NCCCCNC(=O)c2ccc(OCC)cc2)cc1	5.9	0.64	0.3	-9	7	4	-2.5	i	7
O=C(N/N=C/c1ccccn1)c1cc(-c2ccc(Br)cc2)nc2ccccc12	-1.3	·	·	0	-9	-14	-1.9	i	11
CCCn1c(O)c(N=NC(=O)CNC(=O)c2cccnc2)c2ccccc21	-0.4	0.69	5.3	-6	-8	-12	-16	i	-24
O=C(NCc1cc(Cl)cc(Cl)c1)c1csc([C@@H]2O[C@H](CO)[C@H](O)[C@H](O)[C@H]2O)n1	-4.5	·	·	·	6	11	-2.6	i	·
CC[C@]12c3[nH]c4cc(-c5ccco5)ccc4c3CCN1C(=O)[C@@H](CC(=O)NCCCN(C)C)C[C@@H]2C(=O)N1CCN(C(=O)c2ccco2)CC1	1.0	0.7	-3.2	·	14	6	4.7	i	6
COc1ccc(N2CCN(Cc3cc4c(cc3O)CCC4)CC2)cc1	-4.0	0.7	-0.2	28	·	·	·	·	-2
c1ccc2c(c1)ncc1cccn12	-6.3	0.64	i	-8	·	·	·	·	-4
CN(CC(=O)Nc1c(Cl)cccc1Cl)C(=O)C1CSC2(C)CCC(=O)N12 (stereo not drawn)	-0.4	0.69	2.5	-7	1	2	-1.4	i	6
Cc1ccc(C2=NN=C(NC(=O)CSc3nnc4c5ccccc5n(C)c4n3)SC2)cc1	0.0	0.7	2.2	-8	·	·	·	·	8
O=C(CCc1cn(Cc2ccc(F)cc2)c2ccccc12)N1CCOCC1	4.6	0.65	-0.5	-4	-9	-12	4.2	i	-3
CC(=O)N(CCC1(C(C)C)CCOC(C)(C)C1)C(C)c1cccs1 (stereo not drawn)	4.0	0.7	7.0	0	-10	-7	1.5	i	1
N#Cc1ccccc1Sc1ccccc1C(=O)OCC(=O)NC12CC3CC(CC(C3)C1)C2	-2.8	0.74	6.0	-7	·	·	·	·	2
Cc1ccccc1NC(=O)COC(=O)CC1CCCC1	-1.4	0.59	-0.2	·	8	6	-2.6	·	-11
O=C(Cn1cnc2cc([N+](=O)[O-])ccc2c1=O)Nc1cccc(S(=O)(=O)N2CCCCC2)c1	3.4	0.67	-4.6	·	-3	4	-1.7	i	5
COc1ccc(NC(=O)Cn2c(=O)oc3cc(Cl)ccc32)c(OC)c1	1.4	0.66	7.3	-1	4	-8	-1.9	i	2
O=S(=O)(NC1CCCC1)c1ccc(S(=O)(=O)N2CCc3ccccc32)cc1	2.0	0.67	3.3	4	·	·	·	·	10
Cc1nc2ccccn2c1-c1csc(Nc2cccc(C(=O)O)c2)n1	-0.8	0.68	-10	23	1	0	1.1	i	0
O=C(Nc1cccc(Cl)c1)C1CCCN(S(=O)(=O)c2cnc[nH]2)C1 (stereo not drawn)	-1.4	0.65	2.8	-35	0	9	-2.8	i	2

Single values from above.
For UCH37 DUB inh, OCCC1CN(Cc2cc(F)ccc2-n2cccn2)CCN1C1CCCC1 (stereo not drawn) is entered as 0.3
For ALR H2O2 inh, NC(=O)CSc1nnc2n(N)c(=O)c3ccccc3n12 is entered as 11
For rRNA inh HTS RFP, O=C(CCNS(=O)(=O)c1ccc(Cl)cc1)N1CCOCC1 is entered as 0.3
For rRNA inh HTS, COc1ccc(NC(=O)Cn2c(=O)oc3cc(Cl)ccc32)c(OC)c1 is entered as 4

Screening results: PubChem, several laboratories
